DUX4 txn inh: inhibitors of DUX4-driven ZSCAN4 reporter expression, primary screen, 293T cells, Gaussia and Italica luciferase | 293T-iDUX4 ZSCAN4-Gaussia luciferase reporter, 24 h; stronger effect = lower value | 37,000 tested, 0.8% active | activity change, negative = inhibition, % (test concentration not listed);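 active = -10% or lower and over 25 points stronger than a control reporter; inconclusive = -10% or lower with a smaller gap; inactive = above -10%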;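 also: 0% = median of neutral control wells and -100% = median of positive control wells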
DUX4 txn inh difference: second read-out of DUX4 txn inh, no call of its own (marks repeat the call); Gaussia minus Italica difference, %; measured here: selective DUX4 reporter inhibition;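 worked out from the two reporters; negative = selective loss of the DUX4 reporter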
DUX4 txn inh control: further read-out of DUX4 txn inh, marked with its call; activity change, negative = inhibition, %; measured here: Italica tet-on control reporter;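 0 = neutral control and -100 = positive control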
The depositor's hits bear a star; ? = inconclusive; · = no result given. Not all compounds are listed, so the mix of outcomes need not match the whole.

smiles	DUX4 txn inh	DUX4 txn inh difference	DUX4 txn inh control
C[C@@H]1CCCCO[C@@H](CN(C)S(=O)(=O)c2ccccc2)[C@H](C)CN([C@@H](C)CO)C(=O)c2cc(NC(=O)CCC(F)(F)F)ccc2O1	-1	-4	3.4
O=C(C[C@@H]1CC[C@H]2[C@@H](COC[C@H](O)CN2C(=O)Nc2ccc(F)cc2)O1)NC1Cc2ccccc2C1	7	1	6.3
CN(C)C(=O)c1cccc(-c2ccc3c(c2)[C@@H]2[C@@H](CCN2C(=O)Nc2cccc(F)c2)[C@H](CO)N3C)c1	-9	21	-29
CCCNC(=O)N1CC2(CN(Cc3ccc(F)cc3)C2)c2c([nH]c3cc(OC)ccc23)[C@@H]1CO	-37*	-36*	-1.7*
O=S(=O)(c1ccccc1)N1CCCCN2[C@H](CO)[C@H](c3ccc(C#Cc4ccccn4)cc3)[C@H]2C1	9	-10	20
CN1C(=O)c2cc(NS(=O)(=O)c3ccc(Cl)cc3)ccc2OC[C@@H]2O[C@@H](CC(=O)N3CCc4ccccc4C3)CC[C@@H]21	3	-3	5.1
COc1ccc2c3c([nH]c2c1)[C@H](CO)N(Cc1cc(F)ccc1F)CC31CCN(C(=O)CN(C)C)CC1	-9	-4	-5.0
CCC(=O)N1C[C@H](O)COC[C@H]2O[C@H](CC(=O)NCC3CCCCC3)CC[C@@H]21	5	1	4.2
COc1ccccc1S(=O)(=O)N(C)C[C@@H]1OCc2cn(nn2)CCCC(=O)N([C@H](C)CO)C[C@H]1C	9	9	-0.2
C[C@@H]1CN([C@H](C)CO)C(=O)Cc2cc(NS(C)(=O)=O)ccc2O[C@@H]1CN(C)Cc1ccc(C(F)(F)F)cc1	2	-4	5.5
COCC(=O)NC[C@@H]1[C@H](c2ccccc2)[C@@H](CO)N1C(C)=O	1	3	-1.6
COCCNC(=O)C[C@H]1C[C@H]2c3cc(NS(=O)(=O)c4ccccc4)ccc3O[C@H]2[C@@H](CO)O1	1	0	1.1
O=C(C[C@@H]1C[C@@H]2c3cc(NC(=O)c4ccc5c(c4)OCO5)ccc3O[C@@H]2[C@@H](CO)O1)NCc1ccccn1	-4	-4	0.2
O=C(Nc1cccc(F)c1)N1C[C@@H]2[C@H](c3ccccc31)[C@H](CO)N2C(=O)c1ccccc1F	-2	-1	-0.6
CCCC(=O)Nc1ccc2c(c1)C(=O)N(C)[C@@H]1CC[C@@H](CC(=O)NCC3CCCCC3)O[C@@H]1CO2	1	0	1.1
N#C[C@H]1[C@@H](c2ccccc2C2=CCCC2)[C@H](CO)N1C(=O)C1CCC1	-7	-10	3.4
CN(C)C(=O)[C@H]1[C@H](CO)[C@H]2Cn3c(cccc3=O)[C@@H]1N2CC1CCCCC1	7	2	4.9
O=C(NC1CCCC1)N1CCCCN2[C@@H](CO)[C@H](c3ccc(-c4ccccc4)cc3)[C@@H]2C1	2	-17	18
CC(C)NC(=O)Nc1ccc2c(c1)CC(=O)N([C@@H](C)CO)C[C@@H](C)[C@@H](CN(C)Cc1ccncc1)O2	1	1	-0.3
CO[C@H](CN(C)C(=O)c1ccccc1F)[C@H](C)CN([C@H](C)CO)S(=O)(=O)c1ccc(Cl)cc1	2	-2	4.0
CC(C)N(C[C@@H]1N[C@@H](CO)[C@@H]1c1ccccc1)S(=O)(=O)c1ccccc1	1	1	-0.1
CCCN1[C@@H]2c3cccc(=O)n3C[C@@H]2[C@@H](CO)[C@@H]1C(=O)NC1Cc2ccccc2C1	17	20	-2.8
CCCC(=O)Nc1ccc2c(c1)OC[C@@H](C)NC[C@H](C)[C@H](OC)CN(C)C2=O	11	6	5.1
CNC(=O)C[C@@H]1CC[C@H]2[C@H](COc3ccc(NC(=O)Nc4cccc(C)c4)cc3C(=O)N2C)O1	2	0	2.3
C[C@@H]1CN([C@@H](C)CO)C(=O)c2ccccc2-c2ccccc2CO[C@@H]1CN(C)C(=O)CCC(F)(F)F	8	-3	11
COCC(=O)Nc1ccc2c(c1)[C@@H]1C[C@@H](CC(=O)N[C@@H](C)c3ccccc3)O[C@@H](CO)[C@@H]1O2	2	-4	5.9
C[C@@H]1CN([C@@H](C)CO)S(=O)(=O)c2ccc(C#C[C@@H](C)O)cc2O[C@@H]1CN(C)C(=O)C1CCCCC1	2	3	-1.3
COc1cccc(NC(=O)Nc2ccc3c(c2)C(=O)N(C)[C@H]2CC[C@H](CC(=O)O)O[C@H]2CO3)c1	4	5	-1.3
C[C@@H]1CN([C@@H](C)CO)S(=O)(=O)c2ccc(-c3cccnc3)cc2O[C@H]1CN(C)C(=O)CC1CC1	-5	-6	0.5
Cc1cccc(S(=O)(=O)N2CCCCN3[C@H](C2)[C@H](c2ccc(-c4ccncc4)cc2)[C@@H]3CO)c1	?	·	·
C[C@@H]1CN([C@H](C)CO)C(=O)c2cccc(NC(=O)C3CCOCC3)c2O[C@@H]1CN(C)C(=O)Nc1cccc2ccccc12	2	-3	4.3
O=C(NC1Cc2ccccc2C1)[C@@H]1[C@@H](CO)[C@@H]2Cn3c(ccc(C4=CCCCC4)c3=O)[C@H]1N2CC1CC1	?	·	·
C[C@H]1CCCCO[C@@H](CN(C)Cc2ccncc2)[C@@H](C)CN([C@@H](C)CO)C(=O)c2cc(NS(=O)(=O)c3ccc(Cl)cc3)ccc2O1	0	0	0.0
COCC(=O)N1CC[C@@H]2[C@@H](CO)Nc3ccc(-c4ccc(C(=O)N(C)C)cc4)cc3[C@@H]21	10	9	0.4
COc1ccc(-c2ccccc2[C@@H]2[C@@H](C#N)N(C(=O)C3CCCCC3)[C@H]2CO)cc1	-10	4	-13
CN(C)CC(=O)N1[C@@H](CO)[C@@H](c2ccccc2)C12CN(Cc1cc(F)ccc1F)C2	-2	1	-3.0
CCCC#Cc1ccc2c(c1)O[C@H](CN(C)Cc1ccccn1)[C@@H](C)CN([C@H](C)CO)S2(=O)=O	2	0	1.6
C[C@@H]1CN([C@@H](C)CO)C(=O)CCCn2nncc2CO[C@H]1CN(C)Cc1ccccc1C(=O)O	4	3	0.2
COc1ccc2c3c(n(C)c2c1)[C@H](CO)N(C(=O)NC(C)C)CC31CCN(Cc2nccs2)CC1	15	4	11
CCN(C[C@H]1N[C@@H](CO)[C@@H]1c1ccc(-c2ccccc2)cc1)C(=O)COC	0	1	-1.1
CC(=O)N1CC2(C1)[C@H](c1ccc(-c3ccc(C#N)cc3)cc1)[C@@H](CO)N2C(=O)C1CC1	-4	-3	-0.9
C[C@H]1CC=CC[C@H](c2cccc(Cl)c2)NC(=O)[C@@H](Cc2ccccc2)N(C)C(=O)c2ccccc2O1 (mixture of isomers)	0	2	-1.7
Cc1ccccc1S(=O)(=O)N(C)C[C@H]1OCc2ccccc2-c2c(n(C)c3ccccc23)C(=O)N([C@@H](C)CO)C[C@@H]1C	?	·	·
O=C(C[C@H]1CC[C@@H]2[C@H](COC[C@H](O)CN2S(=O)(=O)c2cccc(Cl)c2)O1)N1CCOCC1	-2	-2	0.1
CN(C)c1ccc2c(c1)[C@@H]1C[C@H](CC(=O)NCc3ccc(-c4ccccc4)cc3)O[C@@H](CO)[C@@H]1O2	?	·	·
CN1C(=O)c2cc(NC(=O)C3CC3)ccc2OC[C@H]2O[C@H](CC(=O)NCCN3CCCC3)CC[C@H]21	6	-5	11
C[C@H](CO)N1C[C@H](C)[C@H](CN(C)C(=O)Cc2ccncc2)Oc2ncc(C3=CCCCC3)cc2C1=O	-1	-2	0.7
Cc1ccccc1-c1ccc([C@@H]2[C@@H](CO)N3CCCCN(C(=O)Nc4cccc(F)c4)C[C@H]23)cc1	?	·	·
CO[C@@H]1CN(C)C(=O)c2cc(NS(C)(=O)=O)ccc2OC[C@H](C)N(CCC(F)(F)F)C[C@H]1C	3	4	-0.7
COc1ccc(NC(=O)Nc2cccc3c2O[C@@H](CN(C)C(=O)NC2CCCCC2)[C@H](C)CN([C@@H](C)CO)C3=O)cc1	-2	-3	0.7
CCC(=O)NC[C@H]1[C@@H](c2ccc(-c3ccc(C#N)cc3)cc2)[C@@H](CO)N1CCC(F)(F)F	-4	-3	-1.0
O=C(C[C@H]1C[C@@H]2c3cc(NC(=O)Nc4ccc(C(F)(F)F)cc4)ccc3O[C@@H]2[C@@H](CO)O1)NCc1ccc(Cl)cc1	?	·	·
O=S(=O)(c1cccs1)N1CCCCN2[C@H](CO)[C@H](c3ccc(Br)cc3)[C@@H]2C1	?	·	·
C[C@H](CO)N1C[C@H](C)[C@@H](CN(C)C(=O)Nc2cccc3ccccc23)OCCCC[C@H](C)Oc2ccc(NC(=O)c3ccncc3)cc2C1=O	4	1	3.0
O=C(C[C@@H]1CC[C@@H]2[C@H](COC[C@@H](O)CN2Cc2ccc(Oc3ccccc3)cc2)O1)N1CCCCC1	?	·	·
COc1ccc2c3c([nH]c2c1)[C@@H](CO)N(Cc1ccccn1)CC31CN(C(=O)CC2CC2)C1	14	12	2.2
CC(C)C(=O)Nc1ccc2c(c1)C(=O)N(C)[C@H]1CC[C@H](CC(=O)O)O[C@H]1CO2	-3	4	-7.3
O=C(C[C@@H]1CC[C@H]2[C@@H](COC[C@@H](O)CN2C(=O)Nc2ccc(Cl)c(Cl)c2)O1)NCc1ccc(Cl)c(Cl)c1	?	·	·
CC(C)NC(=O)N1C[C@H]2[C@@H](c3ccccc31)[C@H](CO)N2C(=O)c1cccnc1	3	-3	5.7
CN(C)C(=O)C[C@H]1C=C[C@H](NS(=O)(=O)c2ccccc2)[C@H](CO)O1	4	3	1.1

Another view of part of the listing above.
CC(C)C(=O)Nc1ccc2c(c1)C(=O)N(C)[C@H]1CC[C@H](CC(=O)O)O[C@H]1CO2
  DUX4 txn inh = -3
  DUX4 txn inh difference = 4
  DUX4 txn inh control = -7.3
O=C(C[C@@H]1CC[C@H]2[C@@H](COC[C@@H](O)CN2C(=O)Nc2ccc(Cl)c(Cl)c2)O1)NCc1ccc(Cl)c(Cl)c1
  DUX4 txn inh = ?
  DUX4 txn inh difference = ·
  DUX4 txn inh control = ·
CC(C)NC(=O)N1C[C@H]2[C@@H](c3ccccc31)[C@H](CO)N2C(=O)c1cccnc1
  DUX4 txn inh = 3
  DUX4 txn inh difference = -3
  DUX4 txn inh control = 5.7
CN(C)C(=O)C[C@H]1C=C[C@H](NS(=O)(=O)c2ccccc2)[C@H](CO)O1
  DUX4 txn inh = 4
  DUX4 txn inh difference = 3
  DUX4 txn inh control = 1.1

Going on with the list.
smiles	DUX4 txn inh	DUX4 txn inh difference	DUX4 txn inh control
COCC(=O)Nc1ccc2c(c1)OC[C@@H](C)N(C(=O)CC1CC1)C[C@H](C)[C@@H](OC)CN(C)C2=O	2	0	2.6
O=C(Nc1cc(F)ccc1F)N1C[C@@H]2[C@H](c3ccccc31)[C@@H](CO)N2CC1CCCC1	-4	-7	3.3
C[C@@H]1CN([C@@H](C)CO)C(=O)c2cc(N(C)C)ccc2O[C@@H](C)CCCCO[C@H]1CN(C)S(=O)(=O)c1cccs1	-5	-3	-2.5
OC[C@H]1[C@H](c2ccccc2)C2(CN(Cc3cccnc3)C2)N1Cc1ccncc1	7	8	-1.2
C[C@H]1CN([C@@H](C)CO)C(=O)c2cccc(NS(=O)(=O)c3ccccc3)c2O[C@H]1CN(C)Cc1ccc(C(=O)O)cc1	-1	-3	2.3
CO[C@@H](CN(C)C(=O)c1ccccc1F)[C@@H](C)CN([C@@H](C)CO)S(=O)(=O)c1ccc(Cl)cc1	-2	-3	0.9
CO[C@H]1CN(C)C(=O)c2ccc(NC(=O)NC(C)C)cc2OC[C@@H](C)N(Cc2ccccn2)C[C@@H]1C	0	-1	0.5
C[C@@H]1CN([C@@H](C)CO)C(=O)CCCn2cc(nn2)CO[C@H]1CN(C)C(=O)Nc1ccccc1F	-1	1	-1.1
CCC(=O)N(C)C[C@H]1N[C@@H](CO)[C@H]1c1ccc(-c2cccc(C#N)c2)cc1	2	3	-1.1
COc1cccc(CNC(=O)C[C@@H]2CC[C@H]3[C@H](COc4ccc(NS(=O)(=O)c5ccccc5F)cc4C(=O)N3C)O2)c1	-2	-5	3.0
CN(C)C(=O)c1cccc(-c2ccccc2[C@H]2[C@H](C#N)N(C(=O)C3CCC3)[C@H]2CO)c1	7	2	5.0
Cc1ccc(S(=O)(=O)N2CC[C@@H]3[C@@H](CO)Nc4ccc(-c5cccc(C(=O)N(C)C)c5)cc4[C@@H]32)cc1	?	·	·
CC(C)NC(=O)N(C)C[C@@H]1Oc2c(NS(=O)(=O)c3cccs3)cccc2C(=O)N([C@H](C)CO)C[C@@H]1C	-1	0	-1.4
C[C@@H]1CN([C@@H](C)CO)C(=O)c2cccc(NC(=O)c3ccncc3)c2O[C@H]1CN(C)CC1CCCCC1	1	3	-2.3
